NPYLR7 ag – mosquito NPYLR7 agonism; HEK293T NPYLR7/Galpha15, GCaMP6s calcium fluorescence; activation, % at 10 µM; actives 0.15% (n = 270,000); in the data active = activation above about 40%;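 also: 0% = vehicle and 100% = reference agonist at the receptor; some compounds past the cut are filed as inactive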
NPYLR7 ag max-min – also measured in NPYLR7 ag; calls as there; activation, %; measured here: Max-Min RFU normalised activation; some inactives read as strong as hits;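 span of the calcium signal over five minutes; 0% = vehicle and 100% = native peptide agonist; compound fluorescence can raise it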
The depositor's hits bear a star. Some of the compounds tested; the hit share may differ from the screen's.

SMILES	NPYLR7 ag	NPYLR7 ag max-min
CCCCNC(=S)NCCc1cc2cc(C)c(C)cc2[nH]c1=O	5.2	4.3
O=C(Nc1nccs1)c1cccc2c1-c1ccccc1C2	33.0	16.1
COc1ccc(C2c3cccn3CCCN2Cc2cccc(F)c2)cc1O (stereo unspecified)	23.5	16.8
CC(C)NC(=O)c1ccnc(-c2ccnc3[nH]ccc23)c1	-0.4	-3.7
COCCCN(CC(=O)N(Cc1ccc(F)cc1)Cc1sccc1C)C(=O)c1cc(Cl)cc(Cl)c1	-2.6	3.6
O=C1CC(NCc2cccc3cccnc23)CN1CCc1ccccc1 (stereo unspecified)	20.7	9.8
CCOC(=O)C1CCN(CC(=O)N2N=C(c3ccc(C)c(C)c3)CC2c2ccc(Cl)cc2)CC1 (stereo unspecified)	13.3	15.5
CC(CCc1ccccc1)NCCn1ncc2ccccc2c1=O (stereo unspecified)	12.7	10.0
CN1CC2N(C(=O)NC3CCCC3)C3CCC2(CC3)OC1=O (stereo unspecified)	26.6	28.2
Cc1ccccc1N1C(=O)c2ccc(C(=O)OC(C)C)cc2C1=O	-4.8	2.5
S=c1[nH]nc(-c2ccncc2)n1Cc1ccco1	1.8	56.3
Cc1nc2ccc(C(=O)N3CCN(c4ccccc4)CC3)cn2c1N(C)C(=O)CCc1ccccc1	8.3	8.1
CC(=O)c1cc(C(=O)O)n(C)c1	3.5	2.5
Cc1ccc2nc(CNc3cc(N4CCCC4CO)ncn3)cn2c1 (stereo unspecified)	3.8	3.1
CN(Cc1ccc(N(C)C)cc1)C(=O)NC1COc2ccccc21 (stereo unspecified)	-4.4	-4.0
CCc1ccc(S(=O)(=O)Nc2ccc3c(c2)N(C(=O)COC)CCC3)s1	3.7	1.2
COc1ccc2nc(C3CC3)cc(C(=O)O)c2c1	1.2	1.1
COC(=O)C1=C(C)N=c2sc(=Cc3cccc(OC(C)=O)c3)c(=O)n2C1c1ccccc1 (stereo unspecified)	8.5	8.1
COC(=O)Cc1ccc(NC(=S)N2CCC(C(N)=O)(N3CCCCC3)CC2)cc1	2.3	11.3
CCSc1nnc(NC(=O)c2cccc(C(=O)OC(C)C)n2)s1	-2.3	-2.8

An excerpt of these results, as labelled records.
SMILES: CCc1ccc(S(=O)(=O)Nc2ccc3c(c2)N(C(=O)COC)CCC3)s1
- NPYLR7 ag: 3.7
- NPYLR7 ag max-min: 1.2

SMILES: COc1ccc2nc(C3CC3)cc(C(=O)O)c2c1
- NPYLR7 ag: 1.2
- NPYLR7 ag max-min: 1.1

(continued)
SMILES	NPYLR7 ag	NPYLR7 ag max-min
COc1ccccc1-c1nc2c(C)cccn2c1Nc1c(C)cccc1C	-2.9	2.1
Cn1cc(S(=O)(=O)Cc2ccc(Br)cc2)c2ccccc21	-0.6	1.4
O=C(NCC1CCCO1)C(C1CCCC1)N1CCN(C(=O)c2ccc3c(c2)OCO3)CC1 (stereo unspecified)	-6.4	-9.3
O=C(c1ccoc1)N1CCN(Cc2cc3c(cc2O)CCC3)CC1	16.4	14.6
Cc1cc2cc(CNC(=S)Nc3ccccc3)ccc2[nH]1	5.0	7.0
Cc1ccc(-n2nnc3c(=O)n(CC(=O)c4ccccc4)cnc32)cc1Cl	0.9	-4.3
CN(C(=O)c1cc(S(=O)(=O)N(C)C)ccc1Cl)C1CCc2ccccc21 (stereo unspecified)	8.6	8.4
O=C(Nc1nnc(-c2ccc3c(c2)OCO3)s1)C1CCCN1C(=O)c1ccc2c(c1)OCO2 (stereo unspecified)	13.2	22.3
Cc1cn2c3c(=O)n(C)c(=O)n(C)c3nc2n1CCN1CCN(c2ccc(F)cc2)CC1	-2.6	-3.8
Cc1nnc(CSc2nnc(-c3cccs3)n2C2CC2)o1	-1.4	4.4
COC(=O)CCC(=O)N1CCN(c2c(-c3ccccc3)cnc3ncnn23)CC1	2.4	-1.4
Cc1nn(-c2ccccc2Br)c(C)c1CCC(=O)NN1CCOCC1	6.4	5.2
O=C(c1cccc2cccnc12)N1CCN(Cc2ccccc2F)CC1	14.7	10.7
Cc1cc([N+](=O)[O-])cc(S(=O)(=O)N(C)CC(=O)N2CCCC2)c1C	-1.1	2.5
CC1=NN(C(=Nc2nnc(C)s2)n2ccnc2)[C@H](c2ccc(C)cc2)S1	3.0	8.6
COc1ccc(OC2CCN(C(=O)C3=CC(=O)CC(C)(C)O3)CC2)cc1	5.2	7.5
CCNC(=S)NN=C(C)c1cccs1	0.6	0.3
CC(C)(C)c1cc(C(=O)Nc2ccc(-c3onc4c3CCc3ccccc3-4)cc2)n(Cc2ccccc2)n1	3.1	-1.7
O=C(Nc1nnc(C2CC2)s1)NC(c1ccc(F)cc1)C1CCCC1 (stereo unspecified)	9.0	10.6
COCCCNc1nc2nonc2nc1NC1CCc2ccccc21 (stereo unspecified)	6.6	6.7

Some of these compounds in order of length of the SMILES, high to low:
SMILES	NPYLR7 ag	NPYLR7 ag max-min
O=C(Nc1nnc(-c2ccc3c(c2)OCO3)s1)C1CCCN1C(=O)c1ccc2c(c1)OCO2 (stereo unspecified)	13.2	22.3
Cc1ccc(-n2nnc3c(=O)n(CC(=O)c4ccccc4)cnc32)cc1Cl	0.9	-4.3
O=C(Nc1nnc(C2CC2)s1)NC(c1ccc(F)cc1)C1CCCC1 (stereo unspecified)	9.0	10.6
Cc1nn(-c2ccccc2Br)c(C)c1CCC(=O)NN1CCOCC1	6.4	5.2
Cc1cc2cc(CNC(=S)Nc3ccccc3)ccc2[nH]1	5.0	7.0
COCCCNc1nc2nonc2nc1NC1CCc2ccccc21 (stereo unspecified)	6.6	6.7

Continued.
SMILES	NPYLR7 ag	NPYLR7 ag max-min
O=C(NCCc1ccc(-n2cccn2)cc1)c1ccc2c(c1)OCO2	-5.0	-4.7
Cc1ccc2c(c1)OC1(NC2=O)C(=O)N(C)c2ccccc21 (stereo unspecified)	7.0	2.3
CC(C)(C)c1ccc(S(=O)(=O)c2cnc(SCC(=O)Nc3ccc(Cl)cc3)[nH]c2=O)cc1	-5.7	-2.9
Cc1ccccc1-n1ncc(C(C)NS(=O)(=O)c2sccc2C)c1C (stereo unspecified)	8.5	3.5
CC(=O)Nc1cccc(OCc2ccon2)c1	12.4	8.5
CN1CCN(S(=O)(=O)c2cccc3ccccc23)CC1	-1.2	-3.4
O=C(NNC1=NCCC1)c1cccc(Br)c1	3.7	-1.0
CCNC(=O)c1c(NC(=O)C(C)Cn2nc(C)nc2C)sc2c1CCCC2 (stereo unspecified)	-9.3	-11.8
Cc1cccc(Cn2c(C)c(N3CCOCC3)c(C)c2C(=O)Nc2cccc(C)c2)c1	26.0	16.6
CN(C)c1cccc(Nc2nccc3c2cc(-c2ccccc2)n3C)c1	6.4	5.4
CCCCOc1ccccc1C1Nc2ccccc2-c2nnc(SCCCC)nc2O1 (stereo unspecified)	-7.6	-16.0
CC(=O)N(C)Cc1cccc(NC(=O)N(CCO)CC(C)(C)C)c1	2.2	0.3
COc1ccc(CN(C)C(=O)Nc2ccccc2OCC(C)C)cc1	6.0	5.3
COc1ccccc1OCC(=O)OCc1cc(-c2ccc3c(c2)OCO3)on1	-2.8	-5.6
CCC(C)Nc1ncnc2c1nnn2C (stereo unspecified)	9.3	4.2
Cc1ncc(C)c(N2CCC(CO)(Cc3cccc(C(F)(F)F)c3)CC2)n1	15.9	12.4
CCOCCCn1c(SCc2ccccc2C#N)nc2cc(S(=O)(=O)N3CCCC(C)C3)ccc21 (stereo unspecified)	7.7	0.1
COc1ccc2[nH]c3c(c2c1)CCNC31CCN(C(=O)Nc2ccc(Oc3ccccc3)cc2)CC1	15.3	15.8
OC(c1ccccc1)c1ncc(-c2cccc(F)c2)[nH]1 (stereo unspecified)	0.0	-1.7
COc1cc(C)c(-c2ccc(Cn3ccnc3)cn2)c(C)c1	0.5	1.1

4 compounds drawn at random from those above:
SMILES	NPYLR7 ag	NPYLR7 ag max-min
Cc1ccc2c(c1)OC1(NC2=O)C(=O)N(C)c2ccccc21 (stereo unspecified)	7.0	2.3
CCCCOc1ccccc1C1Nc2ccccc2-c2nnc(SCCCC)nc2O1 (stereo unspecified)	-7.6	-16.0
CCOCCCn1c(SCc2ccccc2C#N)nc2cc(S(=O)(=O)N3CCCC(C)C3)ccc21 (stereo unspecified)	7.7	0.1
CN1CCN(S(=O)(=O)c2cccc3ccccc23)CC1	-1.2	-3.4

Going on with the list.
SMILES	NPYLR7 ag	NPYLR7 ag max-min
C=CCn1cc(C(=O)Nc2cc(C)cc(C)c2)c2nn(-c3ccccc3)c(=O)c-2c1	-1.2	-2.5
COc1ccc(C(=O)Oc2cc(C)[nH]c(=O)c2[N+](=O)[O-])cc1OC	12.7	9.3
C=CCN(Cc1cccc(OC)c1)C(=O)c1cc2cccnc2nc1C	4.4	1.8
CCc1nn(CC(=O)NCCCN(CC)CC)c(=O)c2cc3occc3n12	4.5	1.0
Cc1sc2nc(SCC(=O)c3cccs3)n(Cc3ccco3)c(=O)c2c1C	-5.8	-5.1

Screening results deposited in PubChem by Fisher Drug Discovery Resource Center.
